Six1-Eya2 inh – Six1/Eya2 interaction inhibition; Q15475+O00167; AlphaScreen GST-Six1/His-Eya2 binding, biochemical; stronger effect = lower value; control for the full effect not named in the record; activity change, % (test concentration not listed); hit rate 0.56% among 360,000; AID 651725; in the data active = activity change below about -65%; inconclusive = about -30% to -65%; inactive = above about -30%; note: % is set by controls: 0 for no effect and ±100 for the full control effect; compound concentration not given in the record
Target sequence (O00167 whole entry, looked up): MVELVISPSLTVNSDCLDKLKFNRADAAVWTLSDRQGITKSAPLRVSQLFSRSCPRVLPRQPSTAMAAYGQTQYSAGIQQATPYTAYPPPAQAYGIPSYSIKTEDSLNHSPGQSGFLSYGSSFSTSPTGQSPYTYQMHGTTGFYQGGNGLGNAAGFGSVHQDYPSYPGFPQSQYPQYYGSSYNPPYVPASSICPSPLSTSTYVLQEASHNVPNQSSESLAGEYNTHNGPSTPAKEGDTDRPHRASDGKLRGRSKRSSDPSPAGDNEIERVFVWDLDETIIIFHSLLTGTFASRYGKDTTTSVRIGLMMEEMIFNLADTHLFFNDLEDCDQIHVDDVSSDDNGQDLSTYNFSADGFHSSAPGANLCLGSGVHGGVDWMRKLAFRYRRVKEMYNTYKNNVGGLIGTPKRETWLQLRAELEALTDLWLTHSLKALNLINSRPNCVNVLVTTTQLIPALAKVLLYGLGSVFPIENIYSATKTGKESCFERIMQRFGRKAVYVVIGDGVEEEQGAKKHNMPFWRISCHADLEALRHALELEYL
Target sequence (Q15475 whole entry, looked up): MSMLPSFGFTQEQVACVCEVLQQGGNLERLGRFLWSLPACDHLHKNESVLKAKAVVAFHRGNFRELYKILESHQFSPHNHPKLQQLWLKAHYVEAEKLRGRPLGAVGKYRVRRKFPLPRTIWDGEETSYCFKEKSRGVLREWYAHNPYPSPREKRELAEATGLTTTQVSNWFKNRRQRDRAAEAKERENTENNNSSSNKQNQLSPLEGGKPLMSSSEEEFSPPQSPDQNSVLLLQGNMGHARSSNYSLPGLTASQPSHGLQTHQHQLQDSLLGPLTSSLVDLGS
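GST-Six1 + His-Eya2 (5X stock: 250/500 nM); Tris pH 8.0, 300 mM NaCl, 0.05% BSA, 0.02% Tween 20; GSH donor/Ni acceptor beads; 1 h 37 °C dark; AlphaScreen readout.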
PINK1 modulator – modulators of PINK1 expression; PINK1 immunofluorescence, high-content cytometry, 24 h; Potency, µM (top dose mostly 76.6 µM), without a hit: at the top dose activation (PINK1 increase), actives largely listed as activators; hit rate 0.2% among 410,000; AID 624263; active = well fitted activation curve with a large enough effect; inconclusive = small, poorly fitted or top-dose-only effect; inactive = flat fitted curve, though single readings scatter; cell line not stated here;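 note: potency is the fitted concentration of half-maximal effect; % of control where 0% means no effect; nearly all actives have a fitted effect of over 65% in size; a mitochondrial uncoupler was the plate control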
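Measures PINK1 amount and localization on or inside mitochondria by immunofluorescence. Stable cells get compounds at 5 concentrations for 24 hours before fixation and staining; CCCP controls included.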
TRPML1 agonist – human mucolipin-1 channel agonism; AID 624414; hit rate 0.12% among 410,000; Q9GZU1; TRPML1-expressing cells, Ca2+ dye fluorescence, FDSS; host cell line not named in the record; reference of the full effect not given here; activation, % (concentration not given with the values); in the data active = activation above about 50%; inconclusive = about 30% to 50%; inactive = below about 30%; note: 0% is about no effect; the text of the record puts the active cut at 80%
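In this qHTS format, compounds were pin-transferred onto Ca8-dye-loaded TRPML1-DL cells induced with Tet overnight, and intracellular Ca2+ fluorescence was recorded kinetically for 110 s after a 10 s baseline. A subsequent 4uM final 54-4 (EC80) addition followed by a second 110 s read served as the antagonist phase.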
D2 ag – agonists of human D2 dopamine receptor (beta-arrestin); P14416; DiscoveRx PathHunter D2 beta-arrestin, luminescence, 90 min; 100% = 57 uM dopamine signal; activation, % (concentration not given with the values); hit rate 0.084% among 360,000; AID 624465; in the data active = activation above about 40%; inconclusive = about 15% to 40%; inactive = below about 15%; note: compound concentration not given in the record; the text of the record calls up to 30% inactive
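DiscoveRx PathHunter D2 beta-arrestin cells (2,100/well) attached overnight, then compound-stimulated 90 min at 37 C in HBSS/10 mM HEPES/0.1% Tween-20 buffer; beta-galactosidase complementation read by luminescence after 1 h at ambient temperature. Dopamine 57 uM final (EC100) as control.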
TRPML1 inh – blocks the human TRPML1 channel; Q9GZU1; TRPML1-inducible cells, Ca2+ dye fluorescence, FDSS; stronger effect = lower value; inhibition of EC80 agonist-evoked calcium signal; activity change, negative = inhibition, % (concentration not given with the values); hit rate 0.02% among 390,000; AID 624415; in the data active means activity change below about -50%; inconclusive means about -30% to -50%; inactive means above about -30%;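 note: stimulus is agonist 54-4 at its EC80 concentration; % is set by controls: 0 for no effect and ±100 for the full control effect; compound concentration not given in the record; the text of the record puts the active cut at -80%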
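Tet-induced TRPML1-DL cells loaded with Ca8 no-wash calcium dye were read kinetically on FDSS. Compound addition was followed by EC80 agonist 54-4 (4 uM final); inhibition was read over 110 s.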
D2 potentiator – potentiates the human D2 dopamine receptor allosterically. P14416. DiscoveRx D2 beta-arrestin cells, luminescence, 90 min; 100% = 57 uM dopamine signal. potentiation, % (concentration not given with the values). hit rate 0.23% among 360,000. AID 624464; active = potentiation of 50% or more; inconclusive = 30% to 50%; inactive = 30% or less;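 note: compound concentration not given in the record; tested on top of an EC20 dose of dopamine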
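PathHunter beta-arrestin assay in DiscoveRx D2 cells. Compounds were added with an EC20 of dopamine (50 nM final) for 90 min at 37 deg C. Luminescence was read 1 h after detection reagent, with 57 uM dopamine as the EC100 control.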
* marks the source's active call; other numbers are inactive results; . = not tested or not shown; & = joins results of further samples; [ ] = dose if it differs, or a comment.

SMILES | Six1-Eya2 inh | PINK1 modulator | TRPML1 agonist | D2 ag | TRPML1 inh | D2 potentiator
COc1ccc(CNc2nc(-c3ccco3)nn2C(=O)c2ccccc2C)cc1 | . | -0.6% | 0.5 | . | -1 | .
COc1ccc(C/C(N)=N/OC(=O)Cc2ccc(OC)c(OC)c2)cc1 | 6 | 1.5%[38.3 µM] | 0.7 | 3.7 | 2 | 16
CN=C(Nc1cc(C)nn1CCC#N)c1ccccc1 | 4 | . | -0.1 | 0.5 | 17 | 18
CCN1CCN(c2cc(C)c3cc(NC(=O)c4ccc(OC)c(OC)c4)ccc3n2)CC1 | -13 | 2.9%&1.2% | 0.5&-0.4 | 1.4 | 5&26 | -6
CSc1nc(N)c(NC(=O)c2ccc(Br)o2)c(=O)[nH]1 | 0 | -1.3% | -0.5 | -1.7 | -8 | -2
O=C(Nc1ncc2c(n1)-c1ccccc1CC2)C1CC1 | 3 | 0.7% | 0.4 | -2.5 | -6 | -7
Clc1ccc(-c2cccs2)nn1 | 2 | -0.1% | -1.0 | 8.5 | -10 | 7
CCOc1ccccc1C1C(C#N)=C(N)Oc2cc(C)n(Cc3ccccn3)c(=O)c21 (stereo unspecified) | -4 | -7.1%[38.3 µM] | -0.7 | -1.5 | 3 | 5
COc1ccccc1CNS(=O)(=O)c1ccc(NC(C)=O)cc1 | 2 | -3.7%[38.3 µM] | -0.7 | 0.2 | 11 | -5
COc1ccc(-c2nn(C)c3sc(C(=O)N4CCOCC4)cc23)cc1OC | -23 | -0.8% | -0.5 | -0.5 | 36 | 0
Cc1cc(NS(=O)(=O)c2ccc(NC(=S)NC(=O)c3ccccc3)cc2)no1 | 0 | 0.6% | 0.6 | -6.8 | 25 | -28
COc1ccc(-c2nc(CS(=O)CC(=O)NC3CCCCC3)c(C)o2)cc1OC (stereo unspecified) | -1 | 1.6% | -0.5 | -8.9 | -6 | -17
CC(C)C(C)NC(=O)COC(=O)c1cccc(C(=O)OCC(=O)NC(C)C(C)C)n1 (stereo unspecified) | -3 | 1.0% | 1.5 | -5.8 | -4 | -3
COC(=O)[C@@H](NC(=O)N1CCN(C(=O)C2COc3ccccc3O2)CC1)C(C)C (stereo partly specified) | 7 | -0.9% | 1.4 | -13 | -60* | -8
O=C1C(=O)N(c2ccccn2)C(c2ccc(Br)cc2)/C1=C(/O)c1ccc(Br)cc1 (stereo unspecified) | -1 | 0.5% | -0.5 | 8.3 | -1 | -5
COc1ccc(-c2cn3nc(SCC(=O)NCC4CCCO4)ccc3n2)cc1 (stereo unspecified) | -14 | 1.7% | 1.0 | -1.1 | -3 | -8
CCOC(=O)C1(Cc2cccc(OC)c2)CCCN(S(=O)(=O)CC)C1 (stereo unspecified) | 12 | -1.9% | 0.0 | -5.0 | 29 | -4
COc1ccc(-c2cc(C(=O)Nc3ccc(C(N)=O)cc3)c3ccccc3n2)cc1 | -14 | 1.6% | -0.1 | 1.9 | -11 | -3
O=C(CCCN1C(=O)/C(=C/c2ccccc2)SC1=S)NCCCn1ccnc1 | -4 | 2.8% | -0.2 | 0.8 | 13 | 11
O=C(COc1ccc2ccccc2c1)NNC(=O)[C@@H]1CCCC[C@@H]1C(=O)O | 3 | 3.4% | -1.3 | -0.8 | 12 | -2
COc1ccc(Oc2ccccc2C#N)cc1 | 10 | 1.2% | -0.6 | -1.1 | -1 | -3
COc1ccc(COC(=O)NNC(=O)c2ccccc2Cl)cc1 | 5 | -1.5% | -0.3 | 0.9 | -5 | 3
O=C(Cc1n[nH]c(=O)c2ccccc12)N1CCN(S(=O)(=O)c2ccc(F)c(Cl)c2)CC1 | -2 | -2.3% | -0.2 | 3.3 | -16 | -4
Cc1cccc(C)c1NC(=S)NC(=O)c1ccc(Br)o1 | -6 | 0.5% | . | -5.7 | . | -3
Cc1cccc(CN2CCCC(C(=O)N3CCc4ccccc4C3)C2)c1 (stereo unspecified) | 0 | . | -0.3 | -0.6 | 19 | 4
O=C(NC(=S)Nc1ccc(S(=O)(=O)N2CCCCC2)cc1)c1cccs1 | 0 | 27% | -0.2 | -4.4 | -3 | -14
Cc1ccc2nc(CN(C)C(=O)[C@H]3O[C@@H](n4ccc(N)nc4=O)[C@H](O)[C@@H]3O)[nH]c2c1 | 10 | 1.3% | -0.6 | -3.4 | . | -2
COc1ccccc1NC(=O)CSc1nnc(-c2ccoc2C)n1CCc1ccccc1 | -8 | -0.1% | -1.3 | -2.6 | -11 | -6
C[C@@H]1CCCCO[C@H](CN(C)S(=O)(=O)c2cccs2)[C@@H](C)CN([C@H](C)CO)C(=O)c2cc(NC(=O)C3CCCCC3)ccc2O1 | -1 | 2.6% | 0.3 | -3.6 | 7 | -8
COc1cccc(N2CCN(C(=O)CNC(=O)c3sc4ccccc4c3Cl)CC2)c1 | 0 | 10% | 0.4 | 4.1 | -9 | -10
CN(C(=O)COc1ccc(C(C)(C)C)cc1)C1CCS(=O)(=O)C1 (stereo unspecified) | -1 | 3.7%[38.3 µM] | -0.3 | -1.8 | 0 | -16
CCN(CC)CCN1C(=O)c2oc3ccccc3c(=O)c2C1c1ccc(C)cc1 (stereo unspecified) | -5 | -1.8% | 0.3 | -2.2 | -11 | -15
COc1ccccc1CNC(=O)C[C@@H]1C[C@H]2c3cc(NC(=O)c4ccc5c(c4)OCO5)ccc3O[C@H]2[C@@H](CO)O1 | -23 | 4.0% | . | 0.7 | . | .
CN1CCc2c(OCC(=O)N3CCC(Cc4ccccc4)CC3)cccc2C1=O | -11 | -0.1% | 2.9 | -0.5 | 10 | -6
Cc1ccc(S(=O)(=O)CCC(=O)N(Cc2nnc(-c3ccc(Cl)cc3)o2)C2CC2)cc1 | -1 | -0.9% | -1.8 | -2.5 | 0 | -5
NC(=O)c1oc2ccccc2c1NC(=O)c1ccco1 | -14 | -0.9% | -0.4 | 3.1 | 4 | 9
Cc1c(Cl)cccc1NC(=O)NNC(=O)CCc1ccccc1 | 3 | -0.5% | 0.2 | -2.6 | -4 | -8
Cn1c(=O)[nH]c(=O)c2c1nc(CN1CCN(Cc3ccccc3)CC1)n2CC(N)=O | 5 | -0.2% | -0.1 | -0.8 | 22 | -10
COc1ccc(C(=O)CC(=O)C(=O)Nc2ccc([N+](=O)[O-])cc2C)cc1 | 3 | 7.8% | 1.2 | -2.8 | -18 | -5
COc1c(F)cccc1C1=CC(=O)C[C@H](c2ccc(F)cc2)C1 | 10 | -0.9% | 0.0 | -0.8 | -3 | 3
COc1ccc(-c2c(C#N)c(N)nc(Sc3ccc(Cl)cc3)c2C#N)cc1 | 3 | 7.9% | -0.5 | 3.1 | 3 | 3
COc1cccc(NC(=O)C(=O)NCCC2CCCCN2S(=O)(=O)c2cccs2)c1 (stereo unspecified) | -6 | 2.6% | 2.2 | 0.0 | 62 | -8
COc1ccccc1NC(=O)CCNS(=O)(=O)c1ccc2c(c1)CCN2C(C)=O | 3 | 2.1% | -0.3 | 4.6 | -6 | 4
COc1ccc(C(C(=O)NC(C)(C)C)N(C(=O)CNC(=O)c2cccs2)c2ccc(NC(C)=O)cc2)cc1OC (stereo unspecified) | 5 | 0.1% | 1.3 | 2.3 | -7 | -2
CCO[C@@H]1OC(C(=O)NC2CC2)=C[C@H](c2csc3ccccc23)[C@H]1CCCO | 4 | 2.5% | -0.5 | -2.8 | 9 | -4

Sorted by formula weight (high to low): part of the list above
SMILES | Six1-Eya2 inh | PINK1 modulator | TRPML1 agonist | D2 ag | TRPML1 inh | D2 potentiator
CCO[C@@H]1OC(C(=O)NC2CC2)=C[C@H](c2csc3ccccc23)[C@H]1CCCO | 4 | 2.5% | -0.5 | -2.8 | 9 | -4
CCN(CC)CCN1C(=O)c2oc3ccccc3c(=O)c2C1c1ccc(C)cc1 (stereo unspecified) | -5 | -1.8% | 0.3 | -2.2 | -11 | -15
Cc1c(Cl)cccc1NC(=O)NNC(=O)CCc1ccccc1 | 3 | -0.5% | 0.2 | -2.6 | -4 | -8

Further results:
SMILES | Six1-Eya2 inh | PINK1 modulator | TRPML1 agonist | D2 ag | TRPML1 inh | D2 potentiator
O=C(NCCCn1ccnc1)c1ccccc1Cl | 17 | 1.0% | -0.4 | -0.4 | -4 | -2
Cc1occc1C(=O)N1CCN(S(=O)(=O)c2ccccc2)CC1 | 6 | 1.5% | 0.1 | 2.0 | -10 | 1
Cc1c(Cc2ccccc2)c(=O)[nH]c(=O)n1C | -2 | 1.7% | 0.1 | -2.3 | 4 | -6
CC(OC(=O)c1ccc(S(=O)(=O)NCc2ccco2)cc1)C(=O)Nc1ncc(Cl)cc1Cl (stereo unspecified) | -8 | -0.6% | 0.7 | -0.2 | -12 | -19
O=C(Cc1cccs1)NNC(=S)NC(=O)c1ccco1 | -14 | 1.1% | -0.5 | -11 | 3 | -23
COc1ccccc1-c1nnc2sc(COc3ccc(F)cc3)nn12 | -17 | 1.9% | 0.1 | -0.7 | -13 | -4
COc1ccccc1N/C=C/C(=C(C#N)C#N)N(C)C | -3 | 0.1% | -0.9 | -1.8 | 25 | -8
O=C(NC1c2ccccc2-c2ccccc21)c1ccco1 | 2 | 10% | -0.1 | -2.2 | 11 | 0
O=C(Cn1c(O)c(N=NC(=O)c2ccncc2)c2ccccc21)Nc1ccccc1 | 0 | 6.0% | 0.5 | -0.8 | 4 | -6
COc1cc(C)ccc1OCCOc1ccccc1Cl | 55 | 15% | 3.7 | -3.5 | -1 | -17
COCCNC(=O)c1ccc(NC(=O)N2CCCCc3ccccc32)cc1 | . | 0.7% | -0.4 | . | 1 | .
O=C(NC1CC(=O)N(c2ccc3c(c2)OCCO3)C1)N1CCC(O)CC1 (stereo unspecified) | 9 | 3.8% | 0.5 | 1.3 | -10 | 7
COc1ccc(/C=N/NC(=S)Nc2ccccc2)cc1COc1ccc(Br)cc1 | -7 | 9.8% | -0.3 | -7.3 | 63 | -16
CC(=O)c1ccc(C(=O)Nc2ccc(N3CCOCC3)cc2)cc1 | 9 | 5.3% | 0.0 | -1.5 | 51 | -12
CCc1ccc(OC(C)C(=O)Nc2ccc(S(=O)(=O)Nc3nccs3)cc2)cc1 (stereo unspecified) | 0 | 0.3% | 2.8 | 7.6 | -7 | -5
COC(=O)c1ccccc1S(=O)(=O)N1CCCC(c2nc3c(nnn3Cc3ccc(C)cc3)c(=O)[nH]2)C1 (stereo unspecified) | -11 | 2.8% | -0.9 | -4.5 | -5 | -8
O=C(NNC(=S)NC(=O)c1ccccc1[N+](=O)[O-])c1ccccc1 | 0 | 3.4% | 0.2 | -0.9 | 3 | -6
CCCCn1cc(S(=O)(=O)c2ccc(C)c(C)c2)c(=O)c2cc(F)c(N(CC)CC)cc21 | . | -0.5% | -1.0 | . | -5 | .
C=CCNc1nc(Nc2ccc(-c3nc4ccccc4o3)cc2)nc(N2CCOCC2)n1 | -9 | -5.4%[38.3 µM] | 1.0 | 2.3 | -15 | 12
Cc1ccc2c(Cl)c(C(=O)Nc3nn[nH]n3)sc2c1 | -2 | -1.4% | 2.9 | 1.0 | 43 | 6

An unsorted share of the library; overall some 1% were active at least once.
